TRPML1 blocker – inhibitors of human TRPML1 channel; Q9GZU1; TRPML1-inducible cells, Ca2+ dye fluorescence, FDSS; hits give low values; inhibition of EC80 agonist-evoked calcium signal; activity change, negative = inhibition, % (no concentration beside the values); hit rate 0.02% among 390,000; in the data active means activity change below about -50%; inconclusive means about -30% to -50%; inactive means above about -30%;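 further: stimulus is agonist 54-4 at its EC80 concentration; on the % scale 0 is the no-effect control and ±100 the full control effect; compound concentration not given in the record; the text of the record puts the active cut at -80%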
Target sequence (Q9GZU1 whole entry, looked up): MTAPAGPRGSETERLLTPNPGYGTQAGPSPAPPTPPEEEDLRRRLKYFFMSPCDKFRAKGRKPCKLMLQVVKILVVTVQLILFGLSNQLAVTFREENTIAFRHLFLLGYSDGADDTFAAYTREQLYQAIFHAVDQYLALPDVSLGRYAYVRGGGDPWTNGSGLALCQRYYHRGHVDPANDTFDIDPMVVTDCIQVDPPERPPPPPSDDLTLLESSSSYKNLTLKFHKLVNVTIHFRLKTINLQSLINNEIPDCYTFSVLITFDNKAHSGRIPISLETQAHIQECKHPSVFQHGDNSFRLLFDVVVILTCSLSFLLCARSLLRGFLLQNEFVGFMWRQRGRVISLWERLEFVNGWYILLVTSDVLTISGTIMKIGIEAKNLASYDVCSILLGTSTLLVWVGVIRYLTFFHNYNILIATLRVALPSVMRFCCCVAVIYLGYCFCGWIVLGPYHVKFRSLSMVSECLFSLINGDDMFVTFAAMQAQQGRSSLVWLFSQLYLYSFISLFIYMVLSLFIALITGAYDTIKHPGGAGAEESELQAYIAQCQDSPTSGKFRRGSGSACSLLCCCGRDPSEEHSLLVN
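Tet-induced TRPML1-DL cells loaded with Ca8 no-wash calcium dye were read kinetically on FDSS. Compound addition was followed by EC80 agonist 54-4 (4 uM final); inhibition was read over 110 s.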
CtBP-E1A blk – blocks the CtBP interaction with E1A | AlphaScreen GST-E1A/His-CtBP binding, 1536-well; hits give low values; control for the full effect not named in the record | activity change, % (test concentration not listed) | hit rate 0.49% among 340,000 | AID 651724; in the data active means activity change below about -65%; inconclusive means about -30% to -65%; inactive means above about -30%; further: on the % scale 0 is the no-effect control and ±100 the full control effect; compound concentration not given in the record
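In 5 uL wells, 23 nL compound meets equimolar GST-E1A and His-CtBP (5X stock 125 nM each) for 2 h, 37 °C. Beads (5X, 50 ug/mL) then 1 h, 37 °C, dark.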
TRPML1 ag – agonists of human TRPML1 channel; Q9GZU1; TRPML1-expressing cells, Ca2+ dye fluorescence, FDSS; host cell line not named in the record; reference of the full effect not given here; activation, % (concentration not given with the values); hit rate 0.12% among 410,000; in the data active = activation above about 50%; inconclusive = about 30% to 50%; inactive = below about 30%; further: 0% is about no effect; the text of the record puts the active cut at 80%
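Tet-induced TRPML1-DL cells, 1,500 per well, cultured overnight, were loaded with a no-wash Ca2+ dye for 45–90 min. Calcium fluorescence was recorded on the FDSS for 110 s after compound addition, before the EC80 agonist (4 uM 54-4) was added.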
Six1-Eya2 inh – inhibitors of human Six1/Eya2 interaction. hit rate 0.56% among 360,000. activity change, % (no concentration beside the values). AID 651725. AlphaScreen GST-Six1/His-Eya2 binding, biochemical; hits give low values; control for the full effect not named in the record; in the data active = activity change below about -65%; inconclusive = about -30% to -65%; inactive = above about -30%; further: on the % scale 0 is the no-effect control and ±100 the full control effect; compound concentration not given in the record
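AlphaScreen luminescence read after one hour at 37 °C in darkness. Pin-transferred compounds met GST-Six1 and His-Eya2 protein (5X stock 250 nM/500 nM) plus glutathione donor and Ni-chelate acceptor beads (5X, 50 ug/mL).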
PINK1 expr mod – changes PINK1 expression; hit rate 0.2% among 410,000; Potency, µM (doses to about 76.6 µM), inactives show at the highest dose activation (PINK1 increase), actives largely listed as activators; PINK1 immunofluorescence, high-content cytometry, 24 h; active = well fitted activation curve with a large enough effect; inconclusive = small, poorly fitted or top-dose-only effect; inactive = flat fitted curve, though single readings scatter; cell line not stated here;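 further: potency means the concentration at half of the fitted maximal effect; % of control where 0% means no effect; nearly all actives have a fitted effect of over 65% in size; a mitochondrial uncoupler was the plate control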
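Stable cell line treated 24 h with compounds at 5 concentrations (CCCP controls), then fixed and immunostained for PINK1 plus nuclear and cell stains; PINK1 immunofluorescence quantified by laser-scanning microplate cytometry.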
D2 ag – agonists of human D2 dopamine receptor (beta-arrestin). P14416. DiscoveRx PathHunter D2 beta-arrestin, luminescence, 90 min; 100% = 57 uM dopamine signal. activation, % (no concentration beside the values). hit rate 0.084% among 360,000. AID 624465; in the data active = activation above about 40%; inconclusive = about 15% to 40%; inactive = below about 15%; further: compound concentration not given in the record; the text of the record calls up to 30% inactive
Target sequence (P14416 whole entry, looked up): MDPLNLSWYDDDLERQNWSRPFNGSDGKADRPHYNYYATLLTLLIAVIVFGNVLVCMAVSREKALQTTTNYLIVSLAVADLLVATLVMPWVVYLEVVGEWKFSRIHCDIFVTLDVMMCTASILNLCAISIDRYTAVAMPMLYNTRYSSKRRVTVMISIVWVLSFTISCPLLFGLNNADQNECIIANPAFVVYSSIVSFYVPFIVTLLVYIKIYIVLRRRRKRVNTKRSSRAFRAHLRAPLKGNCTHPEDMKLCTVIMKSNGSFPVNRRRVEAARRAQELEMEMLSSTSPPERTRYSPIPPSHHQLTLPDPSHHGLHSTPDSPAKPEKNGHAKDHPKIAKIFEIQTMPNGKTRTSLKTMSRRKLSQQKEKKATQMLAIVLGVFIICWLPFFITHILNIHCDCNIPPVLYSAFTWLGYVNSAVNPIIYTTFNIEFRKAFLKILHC
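DiscoveRx PathHunter D2 beta-arrestin cells (2,100/well) attached overnight, then compound-stimulated 90 min at 37 C in HBSS/10 mM HEPES/0.1% Tween-20 buffer; beta-galactosidase complementation read by luminescence after 1 h at ambient temperature. Dopamine 57 uM final (EC100) as control.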
Numbers without * were called inactive; ? = inconclusive; / = no result given; & = joins results of further samples; [ ] = another dose, or the depositor's remark. This is a random part of the collection. About 1% of those tested had a hit in this group.

SMILES	TRPML1 blocker	CtBP-E1A blk	TRPML1 ag	Six1-Eya2 inh	PINK1 expr mod	D2 ag
COc1cc2c(-c3ccccc3)c(C)oc2cc1/C=N/NC(N)=S	9.5	/	1.2	2.0	6.4%	0.9
O=S(=O)(Cc1cc(Oc2ccccc2)nc(-c2ccccc2)n1)c1ccccc1	13.9	11.3	2.6	-1.4	-1.9%	-3.5
CCc1c(C)[nH]c(C(=O)OCc2ccccc2)c1C	4.2	-21.0	1.5	-13.3	0.1%	0.8
COc1ccc(-c2ccc(C#N)c(SCC(=O)NC3CC3)n2)cc1OC	-6.6	/	-0.8	-2.7	0.2%	-5.6
COc1ccc(C(=O)Nc2ccc3oc(-c4ccc5ccccc5c4)nc3c2)cc1Br	5.2	/	-0.3	/	1.4%	/
COc1ccc(OC)c(CCNC(=O)c2ccc(CS(=O)Cc3cccc(Cl)c3)o2)c1 (stereo not given)	-0.3&-7.7	-0.5	0.6&0.0	-6.9	-1.8%&1.6%	1.1
CCn1c(CCNC(=O)c2cccs2)nnc1SCC(=O)Nc1cccc(Cl)c1	-4.8	4.9	0.9	-8.0	0.5%	-2.4
CC(C)N(C(=O)CSc1nnc(Cc2ccc3c(c2)OCO3)n1C)C(C)C	44.8	-3.9	-0.1	0.1	1.2%	1.3
COc1ccc(NC(=O)CSc2nc3ccccc3n2-c2ccccc2)c([N+](=O)[O-])c1	-8.1	?	2.9	-29.0	-1.0%	-2.3
CC(C)Cn1c(N)c(C(=O)CSc2nncs2)c(=O)n(C)c1=O	-5.7	-4.8	0.2	-3.4	0.6%	3.0
Cc1cc(C)c(OCCCCN(C)Cc2ccccc2)c(C)c1	/	/	/	?	10.5%	-4.0
CCCS(=O)(=O)NC(=O)C1(C)CCCN(C(=O)C(C)(C)Oc2ccc(Cl)cc2)C1 (stereo not given)	/	-7.6	-1.0	-0.1	0.7%	-4.7
Cc1ccc(NC(=O)CS(=O)CC(=O)Nc2cnc3ccccc3c2)cc1Cl (stereo not given)	-4.7	-14.3	0.0	?	3.5%	-1.2
Cn1cc(S(=O)(=O)N2CCCC(C(=O)O)C2)cn1 (stereo not given)	9.3	0.3	-0.2	10.5	3.0%	-4.0
COc1cc(C(=O)OCC(=O)NC(C)CCc2ccccc2)cc(OC)c1OC (stereo not given)	8.8	0.0	1.2	-0.8	2.2%	0.0
CCCCn1c(=O)c(CCC(=O)OC(C)C(=O)Nc2cccc(Cl)c2Cl)nc2ccccc21 (stereo not given)	2.0	2.4	0.3	-0.4	-1.7%	-2.2
COc1ccccc1N1CCN(S(=O)(=O)c2cc(-c3cc(C)no3)ccc2C(C)C)CC1	-5.4	?	-0.8	-28.8	0.3%	-1.1
COc1ccc(CN2[C@@H](CC(=O)O)c3ccccc3S2(=O)=O)cc1	5.1	-4.3	-0.4&-0.5	-19.9	-0.4%	0.6
CN(CCOc1ccc(Cl)cc1)C(=O)CN1C(=O)NC2(CCCC2)C1=O	25.3	7.6	0.8	3.0	2.0%	0.0
CCC(c1nnnn1Cc1ccccc1)N(Cc1ccco1)Cc1cc2cc(OC)ccc2[nH]c1=O (stereo not given)	25.9	-1.0	2.5	-14.2	-2.3%	0.1

12 structures from above, arranged by molecular weight, falling:
SMILES	TRPML1 blocker	CtBP-E1A blk	TRPML1 ag	Six1-Eya2 inh	PINK1 expr mod	D2 ag
CCCCn1c(=O)c(CCC(=O)OC(C)C(=O)Nc2cccc(Cl)c2Cl)nc2ccccc21 (stereo not given)	2.0	2.4	0.3	-0.4	-1.7%	-2.2
CCC(c1nnnn1Cc1ccccc1)N(Cc1ccco1)Cc1cc2cc(OC)ccc2[nH]c1=O (stereo not given)	25.9	-1.0	2.5	-14.2	-2.3%	0.1
COc1ccc(OC)c(CCNC(=O)c2ccc(CS(=O)Cc3cccc(Cl)c3)o2)c1 (stereo not given)	-0.3&-7.7	-0.5	0.6&0.0	-6.9	-1.8%&1.6%	1.1
COc1ccccc1N1CCN(S(=O)(=O)c2cc(-c3cc(C)no3)ccc2C(C)C)CC1	-5.4	?	-0.8	-28.8	0.3%	-1.1
CCCS(=O)(=O)NC(=O)C1(C)CCCN(C(=O)C(C)(C)Oc2ccc(Cl)cc2)C1 (stereo not given)	/	-7.6	-1.0	-0.1	0.7%	-4.7
COc1ccc(NC(=O)CSc2nc3ccccc3n2-c2ccccc2)c([N+](=O)[O-])c1	-8.1	?	2.9	-29.0	-1.0%	-2.3
Cc1ccc(NC(=O)CS(=O)CC(=O)Nc2cnc3ccccc3c2)cc1Cl (stereo not given)	-4.7	-14.3	0.0	?	3.5%	-1.2
COc1cc(C(=O)OCC(=O)NC(C)CCc2ccccc2)cc(OC)c1OC (stereo not given)	8.8	0.0	1.2	-0.8	2.2%	0.0
CC(C)Cn1c(N)c(C(=O)CSc2nncs2)c(=O)n(C)c1=O	-5.7	-4.8	0.2	-3.4	0.6%	3.0
COc1ccc(CN2[C@@H](CC(=O)O)c3ccccc3S2(=O)=O)cc1	5.1	-4.3	-0.4&-0.5	-19.9	-0.4%	0.6
Cc1cc(C)c(OCCCCN(C)Cc2ccccc2)c(C)c1	/	/	/	?	10.5%	-4.0
Cn1cc(S(=O)(=O)N2CCCC(C(=O)O)C2)cn1 (stereo not given)	9.3	0.3	-0.2	10.5	3.0%	-4.0

The results go on:
SMILES	TRPML1 blocker	CtBP-E1A blk	TRPML1 ag	Six1-Eya2 inh	PINK1 expr mod	D2 ag
Brc1ccc2oc3c(N4CCOCC4)ncnc3c2c1	-9.1	11.5	-0.7	-3.7	-1.5%	-4.4
CCOC(=O)Cc1csc(NC(=O)CS(=O)(=O)Cc2ccccc2)n1	4.9	5.9	0.2	0.5	4.2%	-1.5
Nc1ncnc2c1ncn2[C@@H]1O[C@H](COP(=O)(O)O)[C@@H](O)[C@H]1O	2.0	3.6	-0.6	-1.3	1.0%	1.1
Cc1cc(O)c(C2(C(F)(F)F)NCCNC2=O)cc1C (stereo not given)	7.6	0.4	-0.5	1.7	3.5%[38.3 µM]	-3.3
Cn1c(N)c(C(=O)COC(=O)CCCc2c[nH]c3ccccc23)c(=O)n(C)c1=O	13.5	-9.0	-0.8	-16.9	0.1%	-0.1
COC(=O)[C@H]1C[C@H]1[C@@H](NC(=O)c1ccc[nH]1)c1ccccc1	-18.6&-18.1	-3.6	-1.1&1.1	2.4	0.1%	1.2
C/C(CCc1ccc2c(c1)OCO2)=N\NC(=O)c1ccccc1Br	-6.5	-2.2	-0.5	1.7	-0.1%	1.8
Cc1ccc(-c2nnc(Nc3cccc(O)c3)c3ccccc23)cc1S(=O)(=O)N1CCCCC1	2.9	/	1.0	/	0.0%	/
Cc1cccc(NC(=O)COc2ccccc2C)n1	-10.6	2.9	2.7	14.4	21.6%[38.3 µM]	1.7
O=C(NNc1nc(-c2ccccc2)cs1)c1ccco1	-20.8	0.6	0.0	-4.4	3.8%	6.8

Profiles from above:
Shown for `CC(C)Cn1c(N)c(C(=O)CSc2nncs2)c(=O)n(C)c1=O` : TRPML1 blocker: -5.7; CtBP-E1A blk: -4.8; TRPML1 ag: 0.2; Six1-Eya2 inh: -3.4; PINK1 expr mod: 0.6%; D2 ag: 3.0
Shown for `COc1ccc(C(=O)Nc2ccc3oc(-c4ccc5ccccc5c4)nc3c2)cc1Br` : TRPML1 blocker: 5.2; CtBP-E1A blk: /; TRPML1 ag: -0.3; Six1-Eya2 inh: /; PINK1 expr mod: 1.4%; D2 ag: /

Further records:
SMILES	TRPML1 blocker	CtBP-E1A blk	TRPML1 ag	Six1-Eya2 inh	PINK1 expr mod	D2 ag
O=C(NC1CCCCC1)N1CCN(c2ccccc2Cl)CC1	8.3	3.3	0.0	21.6	-1.3%	-7.9
Cc1cccc(C)c1NC(=O)CN(C)C(=O)CCc1nc2sc3c(c2c(=O)[nH]1)CCCC3	19.7	-7.2	0.5	-4.8	-0.8%	-5.3
C=CCNc1nc(C2(C)CC3(CC(C)OC3=O)C(=O)O2)cs1 (stereo not given)	-11.4	-0.5	2.0	7.7	-1.4%	-2.1
COc1ccc(CC(=O)OCC(=O)N2CCN(S(=O)(=O)c3ccc(C)cc3C)CC2)cc1OC	-0.5	2.8	1.2	-10.4	0.4%	9.8
Cc1ccc(NC(=O)C2CC(=O)N(CCc3ccccc3)C2)c(C)c1 (stereo not given)	-12.7	2.9	0.6	5.0	3.6%	2.2
O=[N+]([O-])c1ccc2[nH]c3c(c2c1)CCCC3	5.8	-3.6	0.1	-7.0	6.0%	-1.5
CCc1ccc(Nc2ncc3c(n2)CC(c2ccco2)CC3=O)cc1 (stereo not given)	-2.4	-0.7	0.2	-4.3	7.6%	-0.1
Cc1ccc(NC(=S)N(CCN(C)C)Cc2cccs2)cc1	6.0	-6.2	-0.7	0.9	-1.2%	-4.1
Cc1ccc(C(=O)OCC(=O)NCc2cc(C)c(O)c(C)c2)cc1S(=O)(=O)N1CCCCC1	1.4	-12.1	1.2	-15.2	0.7%	2.0
C[C@]12c3[nH]c4cc(-c5ccco5)ccc4c3CCN1C(=O)[C@@H](CC(=O)NCCCn1ccnc1)C[C@@H]2C(=O)N1CCOCC1	-10.9	-12.0	0.8	-8.8	-1.7%	-1.7
COc1cccc(/C=C2\SC(=S)N(CCCC(=O)N3CCOCC3)C2=O)c1	-11.7	-8.6	-0.4	-2.3	3.1%	0.3
COCCNC(=O)c1ccccc1NS(=O)(=O)c1ccc(Br)s1	-5.6	11.1	0.4	7.5	?	-0.6
Cc1ccc(Cn2c(C)nc3c(c2=O)c2nc4ccccc4nc2n3Cc2ccco2)cc1	4.0	-1.2	-0.5	-21.9	0.1%	-4.5
C/C(=N/NS(=O)(=O)c1ccc(F)cc1)c1ccncc1	8.0	5.7	0.6	3.5	-0.8%	6.2
Cc1ccccc1NS(=O)(=O)c1nnc(NC(=O)c2ccc(Br)cc2)s1	7.2	-2.7	-0.9	-7.8	0.3%	0.5
CCN(CC)C(=O)[C@H]1C[C@H](CC(=O)NCC23CC4CC(CC(C4)C2)C3)C(=O)N2CCc3c([nH]c4cc(CCC(=O)N(C)C)ccc34)[C@]12C	-9.9	5.8	0.4	-0.8	15.2%	-2.7
CC(C)Oc1ccc(C(=O)Nc2c3c(nn2C(C)(C)C)CS(=O)(=O)C3)cc1	-0.4	7.2	-0.8	2.2	-1.0%	-0.7
CCOC(=O)CC1COCCN1Cc1cn(C)nc1-c1ccccc1F (stereo not given)	-12.2	7.9	-0.5	-4.5	-0.6%	0.5
CCC(C)C(NC(=O)OCc1ccccc1)C(=O)NCC(c1ccccc1)N(C)C (stereo not given)	42.2	0.0	-1.1	-16.1	-1.9%	-7.3
COc1cccc(-n2nnc3c(=O)n(CC(=O)Nc4ccccc4C)cnc32)c1	-1.4	2.5	-0.3	8.1	3.4%	-2.2
COc1ccccc1OCCC(=O)OCC(=O)Nc1cc(S(=O)(=O)N(C)C)ccc1Cl	-3.4	-0.5	2.1	-2.7	-3.3%	7.7
O=C(NCCN1C(=O)S/C(=C\c2ccccc2F)C1=O)C1=COCCO1	-7.9	7.3	-0.6	0.0	2.8%	-1.1
